# From PubChem BioAssay
# AF4-AF9 inh = inhibitors of human MLL-AF4/AF9 interaction; AID 651704; P42568; AlphaScreen, biotin-AF4 peptide binding to FLAG-AF9; inhibition, % at 10 µM; 0.47% of 350,000 active;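 active = every replicate reaching a set inhibition limit, whatever the replicate mean, cut at about 25% in these data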;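 also: 0% = plate neutral control median and 100% = total signal loss; the record names both 10 and 1 µM as test concentration; the first replicate is given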
# Target sequence (P42568 whole entry, looked up): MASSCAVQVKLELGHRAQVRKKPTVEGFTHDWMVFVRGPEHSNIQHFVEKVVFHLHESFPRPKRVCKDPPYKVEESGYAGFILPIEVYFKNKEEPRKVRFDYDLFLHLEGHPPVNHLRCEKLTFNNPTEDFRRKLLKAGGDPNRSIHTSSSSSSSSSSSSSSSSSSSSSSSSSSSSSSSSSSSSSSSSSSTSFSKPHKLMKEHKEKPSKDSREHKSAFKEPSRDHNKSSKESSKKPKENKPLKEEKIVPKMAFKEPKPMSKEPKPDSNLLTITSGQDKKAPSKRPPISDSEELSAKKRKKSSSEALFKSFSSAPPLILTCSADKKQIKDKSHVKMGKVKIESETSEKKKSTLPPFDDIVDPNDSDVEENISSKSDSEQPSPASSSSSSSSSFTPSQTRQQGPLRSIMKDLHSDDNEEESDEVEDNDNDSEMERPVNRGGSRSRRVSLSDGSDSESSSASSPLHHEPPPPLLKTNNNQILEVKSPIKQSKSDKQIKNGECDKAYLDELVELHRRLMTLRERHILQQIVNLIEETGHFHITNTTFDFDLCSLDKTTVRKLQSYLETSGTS
# rRNA inh HTS = inhibitors of bacterial rRNA selective over humanized ribosomes; E. coli WT GFP vs humanized-ribosome RFP mutants, fluorescence, 24 h; hits give low values; DMSO median 0, no signal -100; GFP signal change (wild-type ribosome), % (no concentration beside the values); 1.6% of 350,000 active; AID 720706;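 active = significant combined selectivity score with lowered wild-type GFP, culture density cut under 30%, mutant RFP and density less affected; inactive = any of these conditions unmet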; also: one replicate is shown; some compounds called inactive have numbers as strong as hits
# rRNA inh HTS OD600 = further read-out of rRNA inh HTS, marked with its call; OD600 change, %; measured here: OD600 growth;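 optical density of the mix in the first replicate; 0 = DMSO median and -100 = no signal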
# rRNA inh HTS RFP = also measured in rRNA inh HTS; calls as there; RFP signal change, %; measured here: RFP humanized mutant strains;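 first replicate; 0 = DMSO median and -100 = no signal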
# The depositor's hits bear a star; & = joins results of further samples. A portion of the library, so the mix of outcomes need not match the whole.
SMILES,AF4-AF9 inh,rRNA inh HTS,rRNA inh HTS OD600,rRNA inh HTS RFP
CO[C@H]1CN(C)C(=O)c2cc(NC(=O)Nc3cccc(F)c3)ccc2OC[C@H](C)NC[C@H]1C,2.7,-2,-5,2.2
C/C=C/c1ccc2c(c1)O[C@@H](CN(C)Cc1ccc(F)cc1)[C@H](C)CN([C@@H](C)CO)S2(=O)=O,7.5,-13,-43,26
C[C@@H]1CN([C@H](C)CO)C(=O)c2cccc(NC(=O)C3CC3)c2O[C@H]1CN(C)S(=O)(=O)c1ccc(F)cc1,-2.8,-1,0,-1.1
Cc1noc(C)c1S(=O)(=O)Nc1ccc2c(c1)C(=O)N([C@H](C)CO)C[C@@H](C)[C@H](CN(C)S(=O)(=O)c1ccccc1)O2,-1.1,-2,-2,1.9
Clc1cccc(CNc2ccn3nc(-c4ccc(OCc5ccccc5)cc4)cc3n2)c1,-7.7,-2,6,22
C[C@H](CO)N1C[C@H](C)[C@H](CN(C)C)Oc2ccc(NS(=O)(=O)c3ccc(F)cc3)cc2C1=O,-1.1,3,10,-2.4
CCc1nc2ccc(C(=O)N(C)Cc3ccco3)cn2c1N(C)CCCc1ccccc1,3.6,-57,-76,-18
COC(=O)[C@]12C[C@H](CC(=O)NCCC(C)C)C(=O)N(Cc3ccccc3)C1=C[C@H](C(C)C)O[C@@H]2C1CC1,-1.6,-2,7,-4.8
C[C@@H]1CN([C@@H](C)CO)S(=O)(=O)c2ccc(/C=C/c3ccccc3)cc2O[C@@H]1CN(C)CC1CC1,24,3,1,4.7
CO[C@H]1CN(C)C(=O)c2ccc(NS(=O)(=O)c3cn(C)cn3)cc2OC[C@@H](C)N(CCC(F)(F)F)C[C@@H]1C,-12,0,-2,0.7
CC(C)NC(=O)Nc1ccc2c(c1)C(=O)N([C@@H](C)CO)C[C@H](C)[C@@H](CN(C)C(=O)Nc1ccccc1)O2,-1.8,4,10,-3.4
O=C(Cc1ccccc1)N1CC2(C1)[C@@H](c1ccccc1)[C@@H](CO)N2S(=O)(=O)Cc1ccccc1,-17,-3,-7,6.9
CCCCC(=O)N(C)c1c(CC)nc2c(OCc3ccc(C(F)(F)F)cc3)cccn12,-0.2,5,-42,27
C[C@@H]1CN([C@H](C)CO)C(=O)c2cccc(NC(=O)Nc3ccc(C(F)(F)F)cc3)c2O[C@@H]1CN(C)CC1CC1,1.7,2,-4,-2.4
COc1ccc(NC(=O)N(C)C[C@@H]2Oc3ccc(NC(=O)Cc4cn(C)c5ccccc45)cc3C(=O)N([C@H](C)CO)C[C@@H]2C)cc1,2.7,-6,-7,-2.7
C[C@H]1CCCCO[C@H](CN(C)C(=O)Nc2ccc3c(c2)OCO3)[C@@H](C)CN([C@@H](C)CO)C(=O)c2cc(NS(=O)(=O)c3ccc(Cl)cc3)ccc2O1,-6.5,-3,-5,0.0
CC(C)C#Cc1cnc2c(c1)C(=O)N([C@@H](C)CO)C[C@H](C)[C@@H](CN(C)C(=O)c1ccc3c(c1)OCO3)O2,-0.3,3,-8,1.5
C[C@@H]1CCCCO[C@H](CN(C)C(=O)Nc2ccccc2)[C@H](C)CN([C@@H](C)CO)C(=O)c2cc(NS(=O)(=O)c3cn(C)cn3)ccc2O1,0.2,-2,3,-2.4
O=C(C[C@@H]1C[C@@H]2c3cc(NC(=O)C4CCC4)ccc3O[C@@H]2[C@@H](CO)O1)NCc1cc(F)ccc1F,0.2,-4,-5,-0.5
CCC(C(=O)NCc1ccccc1)n1c(-c2ccc3c(c2)CCO3)nc2ccccc21 (configuration not stated),2.6,-31,-66,-2.0
CN(C(=O)CSc1nnc(-c2c[nH]c3ccccc23)n1C1CC1)C1CCS(=O)(=O)C1 (configuration not stated),1.8,4,7,-1.3
CN1c2ccc(-c3ccccc3)cc2[C@H]2[C@H](CCN2C(=O)Nc2ccccc2F)[C@H]1CO,4.4,-19,-64,-2.9
CCCc1cn(CC[C@@H]2CC[C@H](NC(=O)Cc3cccnc3)[C@H](CO)O2)nn1,-1.2,0,-4,-2.3
C[C@@H]1CCCCO[C@@H](CN(C)C(=O)Nc2ccc3c(c2)OCO3)[C@@H](C)CN([C@H](C)CO)C(=O)c2cc(NC(=O)Nc3ccc4c(c3)OCO4)ccc2O1,-0.5,5,13,-2.4
CS(=O)(=O)N1[C@H](CO)[C@H](c2ccccc2)C12CN(C(=O)C1CC1)C2,-1.7,2,2,-1.9
CO[C@@H]1CN(C)C(=O)c2ccc(NC(=O)Nc3cccc(F)c3)cc2OC[C@@H](C)N(C)C[C@@H]1C,-3.5,-2,2,-3.5
C[C@H]1CN([C@@H](C)CO)C(=O)c2cc(N(C)C)ccc2O[C@@H]1CN(C)C(=O)Nc1cccc2ccccc12,-0.5,-5,-3,-0.4
Cc1cccc(S(=O)(=O)N2CC[C@@H]3[C@@H](CO)N(C)c4ccc(Br)cc4[C@@H]32)c1,6.2,-44,-61,-12
CCOC(=O)C1CSCCS(=O)(=O)N1Cc1ccc(Cl)cc1 (configuration not stated),0.8,-7,-12,3.5
C/C=C/c1ccccc1[C@H]1[C@@H](C#N)N(C(=O)NC2CCCCC2)[C@H]1CO,1.0,-5,-12,-1.6
C[C@H](CO)N1C[C@H](C)[C@@H](CN(C)CC2CCCCC2)OCCCC[C@H](C)Oc2ccc(NC(=O)Cc3ccccc3)cc2C1=O,0.3,0,-2,-0.5
COc1ccccc1-c1cnc2c(c1)C(=O)N([C@@H](C)CO)C[C@H](C)[C@H](CN(C)C)O2,-6.5&-6.3&-3.0,4&5,7&19,0.2&-1.0
CCCCNC(=O)C1(C)CCCCN1C(=O)c1cc2ccccc2s1 (configuration not stated),-1.5,2,13,0.0
CC(=O)N(C)C[C@@H]1Oc2ncc(-c3ccccc3C)cc2C(=O)N([C@H](C)CO)C[C@@H]1C,-3.1,2,6,-4.9
C[C@@H]1CN([C@@H](C)CO)C(=O)c2cc(NS(=O)(=O)c3ccccc3)ccc2O[C@@H]1CN(C)CC1CCCCC1,-0.5,4,-2,1.3
CC(C)(C)OC(=O)N(CCc1ccccc1)Cc1cccc(OCc2cccc(NC(=O)/C=C/c3ccccc3)c2)c1,-1.4,25,16,2.4

# Two compounds drawn at random from those above, as already listed:
SMILES,AF4-AF9 inh,rRNA inh HTS,rRNA inh HTS OD600,rRNA inh HTS RFP
CS(=O)(=O)N1[C@H](CO)[C@H](c2ccccc2)C12CN(C(=O)C1CC1)C2,-1.7,2,2,-1.9
CCc1nc2ccc(C(=O)N(C)Cc3ccco3)cn2c1N(C)CCCc1ccccc1,3.6,-57,-76,-18

# (continued)
SMILES,AF4-AF9 inh,rRNA inh HTS,rRNA inh HTS OD600,rRNA inh HTS RFP
CO[C@H]1CN(C)C(=O)c2ccc(NC(=O)c3ccccc3)cc2OC[C@@H](C)N(CC2CC2)C[C@H]1C,-2.1,2,0,-0.3
CN1C(=O)c2cc(NC(=O)c3ccc(C#N)cc3)ccc2OC[C@H]2O[C@@H](CC(=O)NCc3ccc4c(c3)OCO4)CC[C@@H]21,-18,-5,-1,-2.5
O=C(CN1CCOCC1)N1CCCCN2[C@H](CO)[C@H](c3ccc(-c4ccccc4)cc3)[C@@H]2C1,0.8,3,20,-1.3
COC(=O)[C@]12CCCCC=C1N(Cc1ccc(Cl)cc1Cl)C(=O)[C@H](CC(=O)NCc1ccc(OC)c(OC)c1)C2,-4.2,0,-8,0.9
Cc1noc(C)c1S(=O)(=O)Nc1ccc2c(c1)CC(=O)N([C@@H](C)CO)C[C@@H](C)[C@@H](CN(C)CC1CC1)O2,-0.5,3,6,-1.2
COc1ccc(NC(=O)Nc2cc(C)ccn2)cc1,0.0,-9,-5,-0.7
Cc1ccccc1-c1ccc([C@@H]2[C@H]3CN(C(=O)Nc4ccc(F)cc4)CCCCN3[C@H]2CO)cc1,-4.5,-41,-42,6.3
O=C(Nc1ccccc1F)N1C[C@H]2[C@@H](c3ccccc31)[C@H](CO)N2C(=O)c1ccccn1,-22,3,1,-1.9
Cc1noc(C)c1NC(=O)N(C)C[C@@H]1Oc2ccc(NS(=O)(=O)c3cn(C)cn3)cc2C(=O)N([C@H](C)CO)C[C@@H]1C,-3.1,2,4,-2.1
Cc1noc(C)c1NC(=O)N(C)C[C@@H]1Oc2c(NC(=O)Nc3ccc4c(c3)OCO4)cccc2C(=O)N([C@H](C)CO)C[C@H]1C,0.0,0,-1,0.3
C[C@@H]1CN([C@@H](C)CO)C(=O)Cc2cc(NC(=O)Nc3cccc4ccccc34)ccc2O[C@@H]1CN(C)C(=O)Nc1ccccc1,3.0,-4,5,0.7
COc1ccc(NC(=O)Nc2ccc3c(c2)C(=O)N([C@H](C)CO)C[C@@H](C)[C@@H](CN(C)C(=O)Nc2ccc4c(c2)OCO4)OCCCC[C@@H](C)O3)cc1,0.7,1,6,-2.1
COc1ccc(NC(=O)Nc2ccc3c(c2)[C@@H]2C[C@@H](CC(=O)NCc4ccc5c(c4)OCO5)O[C@H](CO)[C@@H]2O3)cc1,-0.7,1,10,-1.6
C[C@H](CO)N1C[C@H](C)[C@@H](CN(C)C(=O)Cc2ccccn2)Oc2ncc(/C=C/c3ccccc3)cc2C1=O,2.6,-3,7,0.7
O=C(Nc1ccc(F)cc1)N[C@@H]1CC[C@H](CCNS(=O)(=O)c2cccc(Cl)c2)O[C@@H]1CO,3.1,-6,-4,1.9
C[C@H]1CN([C@@H](C)CO)C(=O)c2c(c3ccccc3n2C)-c2ccccc2CO[C@@H]1CN(C)C(=O)Nc1ccc(F)cc1,0.1,-1,-12,-2.7
C[C@@H]1CN([C@@H](C)CO)S(=O)(=O)c2ccc(C#Cc3ccc(F)cc3)cc2O[C@H]1CN(C)C(=O)NC1CCCCC1,-0.8,2,8,-1.5
CCOC(=O)[C@]12CCC=C1N(Cc1ccc(Cl)cc1Cl)C(=O)[C@H](CC(=O)N1CCCCC1)C2,1.2,6,2,8.9
C[C@@H]1CN([C@H](C)CO)C(=O)c2cccc(NS(=O)(=O)c3ccccc3)c2O[C@H]1CN(C)CC1CC1,-2.2,2,2,-2.5
C[C@H]1CN([C@@H](C)CO)C(=O)c2cccc(NC(=O)C3CCOCC3)c2O[C@H]1CN(C)C,-1.6,4,5,0.2
Cc1cc(C(=O)Nc2cccc3c2O[C@H](CN(C)S(=O)(=O)c2ccc(Cl)cc2)[C@@H](C)CN([C@@H](C)CO)C3=O)n(C)n1,-2.9,1,-7,0.5
O=C(C[C@@H]1CC[C@@H](NC(=O)CC2CC2)[C@H](CO)O1)NCc1ccc(Cl)cc1,-13,1,1,-0.1
O=C(C[C@H]1C[C@H]2c3cc(NC(=O)NC4CCCCC4)ccc3O[C@H]2[C@@H](CO)O1)NCc1ccccc1,-2.8,0,-5,-1.7
CCCN(C)C[C@H]1Oc2ncc(-c3cccc(C(=O)N(C)C)c3)cc2C(=O)N([C@H](C)CO)C[C@H]1C,-5.2,5,16,-1.1
C[C@H]1CN([C@@H](C)CO)C(=O)c2cc(NC(=O)Nc3cccc4ccccc34)ccc2O[C@@H]1CN(C)C,-1.8,0,1,-2.0
Cc1ccc(-c2cnc3c(c2)C(=O)N([C@@H](C)CO)C[C@H](C)[C@@H](CN(C)C(=O)c2cccc(F)c2)O3)cc1,-0.2,-2,-26,2.9
Cc1cc(N2CCN(C(c3ccnc4ccccc34)c3nnnn3-c3c(C)cccc3C)CC2)c2ccccc2n1 (configuration not stated),0.7,-26*,-13*,8.6*
O=C(Cc1cccnc1)N[C@@H]1CC[C@H](CCNS(=O)(=O)c2ccccc2Cl)O[C@@H]1CO,0.3,-1,4,0.9
COc1ccc(CN2C(=O)CCC2(C)c2nnnn2-c2ccc3c(c2)OCCO3)cc1 (configuration not stated),-3.0,0,9,-5.0
C[C@@H]1CN([C@@H](C)CO)C(=O)c2cc(C#C[C@@H](C)O)cnc2O[C@@H]1CN(C)C(=O)Cc1ccncc1,-1.6,9,13,0.2

# In the list so far, these have a Cl atom:
SMILES,AF4-AF9 inh,rRNA inh HTS,rRNA inh HTS OD600,rRNA inh HTS RFP
Clc1cccc(CNc2ccn3nc(-c4ccc(OCc5ccccc5)cc4)cc3n2)c1,-7.7,-2,6,22
C[C@H]1CCCCO[C@H](CN(C)C(=O)Nc2ccc3c(c2)OCO3)[C@@H](C)CN([C@@H](C)CO)C(=O)c2cc(NS(=O)(=O)c3ccc(Cl)cc3)ccc2O1,-6.5,-3,-5,0.0
CCOC(=O)C1CSCCS(=O)(=O)N1Cc1ccc(Cl)cc1 (configuration not stated),0.8,-7,-12,3.5
COC(=O)[C@]12CCCCC=C1N(Cc1ccc(Cl)cc1Cl)C(=O)[C@H](CC(=O)NCc1ccc(OC)c(OC)c1)C2,-4.2,0,-8,0.9
O=C(Nc1ccc(F)cc1)N[C@@H]1CC[C@H](CCNS(=O)(=O)c2cccc(Cl)c2)O[C@@H]1CO,3.1,-6,-4,1.9
CCOC(=O)[C@]12CCC=C1N(Cc1ccc(Cl)cc1Cl)C(=O)[C@H](CC(=O)N1CCCCC1)C2,1.2,6,2,8.9
Cc1cc(C(=O)Nc2cccc3c2O[C@H](CN(C)S(=O)(=O)c2ccc(Cl)cc2)[C@@H](C)CN([C@@H](C)CO)C3=O)n(C)n1,-2.9,1,-7,0.5
O=C(C[C@@H]1CC[C@@H](NC(=O)CC2CC2)[C@H](CO)O1)NCc1ccc(Cl)cc1,-13,1,1,-0.1
O=C(Cc1cccnc1)N[C@@H]1CC[C@H](CCNS(=O)(=O)c2ccccc2Cl)O[C@@H]1CO,0.3,-1,4,0.9
